KCNQ2 block – KCNQ2 potassium channel inhibitors, primary screen, cell-based, CHO-K1, FluxOR thallium flux, B-score (AID 2156). B-score at 10 µM. 20 min; active compounds read low; only compounds with negative scores are shown here; some inactives read as strong as hits. 1.1% of 310,000 active;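 active = fluorescence ratio B-score at most minus 3 library SDs, with starting brightness B-score within 2 library SDs, cut at about -5.5 in these data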
Target sequence (O88943 whole entry, looked up): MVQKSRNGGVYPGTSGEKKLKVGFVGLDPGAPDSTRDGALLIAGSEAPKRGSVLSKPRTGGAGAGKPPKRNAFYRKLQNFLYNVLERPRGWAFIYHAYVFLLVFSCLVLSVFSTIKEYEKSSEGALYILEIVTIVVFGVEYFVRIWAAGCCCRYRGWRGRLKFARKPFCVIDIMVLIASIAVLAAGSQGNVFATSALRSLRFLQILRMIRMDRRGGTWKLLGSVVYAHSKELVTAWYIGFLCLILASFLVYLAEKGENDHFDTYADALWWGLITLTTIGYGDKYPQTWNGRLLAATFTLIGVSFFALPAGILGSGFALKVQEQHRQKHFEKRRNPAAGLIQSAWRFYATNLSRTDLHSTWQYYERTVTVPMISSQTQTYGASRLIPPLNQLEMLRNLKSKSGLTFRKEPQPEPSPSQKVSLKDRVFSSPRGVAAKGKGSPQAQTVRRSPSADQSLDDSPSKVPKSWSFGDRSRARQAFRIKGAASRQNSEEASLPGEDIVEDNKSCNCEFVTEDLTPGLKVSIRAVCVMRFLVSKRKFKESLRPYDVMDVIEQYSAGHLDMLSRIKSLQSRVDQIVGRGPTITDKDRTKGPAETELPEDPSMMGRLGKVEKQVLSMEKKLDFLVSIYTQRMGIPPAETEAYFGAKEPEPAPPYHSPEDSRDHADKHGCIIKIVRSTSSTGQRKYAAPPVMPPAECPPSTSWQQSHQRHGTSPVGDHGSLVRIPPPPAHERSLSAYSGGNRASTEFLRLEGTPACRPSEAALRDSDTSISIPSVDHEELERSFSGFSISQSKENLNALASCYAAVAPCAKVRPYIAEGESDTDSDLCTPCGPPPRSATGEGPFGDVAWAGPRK
KCNQ2 block baseline – second read-out of KCNQ2 block, no call of its own (marks repeat the call); B-score; measured here: initial fluorescence intensity artifact check;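 brightness before thallium and not channel activity; 0 = typical well and far values either way flag optical interference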
Starred values were filed as active, the others as inactive; i = inactive.

SMILES	KCNQ2 block	KCNQ2 block baseline
COc1cccc(C(=O)N[C@@H](C)C(=O)N2CCC3(CC2)NCCc2[nH]cnc23)c1	i	-0.3
Cc1cc(NC(=O)COC(=O)c2cc([N+](=O)[O-])ccc2N2CCOCC2)ccc1Br	i	0.16
Nc1ccc(-c2nnn(CC(=O)N3CCCCC3)n2)cc1	i	-0.05
CCC1CCCCN1CCCNC(=O)C(C)n1nc(C)c2sc3ccccc3c2c1=O (stereo unspecified)	i	1.3
Cc1ccnc(NC(=O)CNC(=O)COc2ccccc2)c1	i	0.56
N#C/C(=C\c1cn(CC(=O)N2CCCCC2)c2ccccc12)C(=O)NCc1ccc2c(c1)OCO2	i	1.5
O=C(Nc1ccc(NC(=O)c2ccc(Cl)cc2Cl)cc1)c1ccc2c(c1)OCO2	i	0.12
COc1cc(Cc2nccc3cc(OC)c(OC)cc23)c(S(=O)(=O)O)cc1OC	i	-0.6
Cc1ccc(S(=O)(=O)N2CCN(C(=O)c3cccs3)CC2)cc1C	i	0.58
Cn1c(N2CCN(S(=O)(=O)c3ccc(Cl)cc3)CC2)nc2ccccc21	i	1.6
O=C(NCCC(c1ccccc1)c1ccccc1)c1cnccn1	i	-0.17
C=CCn1c(O)c(CN2CCN(Cc3ccccc3)CC2)c(C)c(C#N)c1=O	i	1.4
CCC1CCC(C(=O)NNC(=O)OC)CC1 (stereo unspecified)	i	1.8
O=C(NCCc1c[nH]c2ccccc12)C1Cc2ccccc2CN1C(=O)c1ccco1 (stereo unspecified)	i	0.01
CCc1sc(NC(C)=O)nc1-c1ccccc1	i	1.1
O=C(OCc1ccccc1)/C(=C/c1ccc(Cl)cc1)NC(=O)c1ccccc1Cl	i	0.04
O=c1cc(Cn2ccnc2)c2cc(O)ccc2o1	i	0.09
COCCNC(=O)Cn1nc(-c2ccc(C)cc2)ccc1=O	i	-2
CCC(C(=O)O/N=C(\N)c1ccc(Cl)cc1)c1ccccc1 (stereo unspecified)	i	1.1
O=C(O)CN1CCN(Cc2cccc(Cl)c2)C1=O	i	-1.5
Cc1ccc2cc3c(NC(=O)CC(C)C)nn(C)c3nc2c1	i	-0.09
COc1ccc(N2C(=O)CC(N3CCN(C(=O)c4ccco4)CC3)C2=O)cc1 (stereo unspecified)	i	-0.74
CNc1oc(-c2cccs2)nc1S(=O)(=O)c1ccccc1	i	1.5
COc1ccc2c(C)cc(SCn3nnc4ccccc4c3=O)nc2c1	i	0.87
O=C(COC(=O)C1=COCCO1)Nc1ccc(Oc2ccccc2)cc1	i	2.6
CCC(C)(C)C1CCC(=NNC(=O)c2ccc(Br)o2)CC1 (stereo unspecified)	i	-1.9
O=C(c1cc(F)ccc1F)C1CCCN(C(=O)CSc2ccccn2)C1 (stereo unspecified)	i	0.23
O=C(COC(=O)c1ccc(Cl)c(S(=O)(=O)N2CCCC2)c1)NCc1cccs1	i	-1.5
CNC(=S)NNC(=O)Cc1ccc(OC)c(OC)c1	i	0.12
Cc1ccc(C(=O)N2CCCc3ccccc32)c(F)c1F	i	-1.6
Cc1ccc(NC(=O)COC(=O)C2CCC(=O)N2)c(S(=O)(=O)N2CCOCC2)c1 (stereo unspecified)	i	0.02
Cc1cc(C(=O)N/N=C/c2cc([N+](=O)[O-])cc(C)c2O)n[nH]1	i	0.69
Cc1ccc(NC(=O)CC2SC(=O)N(c3ccccc3)C2=O)cc1 (stereo unspecified)	i	-0.04
Cc1cc(NC(=O)/C=C/c2ccco2)ccc1NC(=O)c1ccccc1	i	0.57
COc1ccc(/C=N/NC(=O)c2ccc3c(c2)OCO3)c(C(=O)O)c1OC	i	1.5
Cc1ccc(CSc2nc3ccccc3cc2C=O)cc1	i	-0.05
Cc1nn(CCO)c(N)c1C1(O)C(=O)Nc2c(Cl)cc(Cl)cc21 (stereo unspecified)	i	0.75
COC(=O)C1CCN(C(=O)/C=C/c2ccc3c(c2)OCO3)CC1	i	0.55
COC(=O)c1c(NC(=O)C(=O)N2CCCCC2)sc2c1CC(C)(C)OC2	i	-0.02
O=c1c2ccccc2nc(COc2ccccc2)n1/N=C/c1ccco1	-10*	0.01*
O=C(COC(=O)[C@@H]1CC(O)CN1S(=O)(=O)c1ccc([N+](=O)[O-])cc1)NC12CC3CC(CC(C3)C1)C2 (stereo partly specified)	i	0.5
C[C@]12C=CC(=O)C=C1CC[C@@H]1[C@@H]2[C@@H](O)C[C@@]2(C)[C@H]1CC[C@]2(O)C(=O)COC(=O)CCC(=O)O	i	-2.2
Cc1occc1C(=O)/C(C#N)=C/c1ccc(O)c(Br)c1	i	3.9
O=C(NC1CCCCC1)C1COc2ccccc2O1 (stereo unspecified)	i	-0.43
CCOCC(=O)Nc1cc(C(=O)OC)ccc1C(=O)OC	i	-0.56
COc1ccc(CC(=O)Nc2ccccc2C(C)=O)cc1S(=O)(=O)N1CCOCC1	i	-0.35
CC(=O)C1=C(C)NC(SCC(=O)c2ccccc2)=C(C#N)C1CC(C)C (stereo unspecified)	i	-1.1
CCOc1ccc(NC(=O)N(c2ccccc2)c2ccccc2)cc1	i	0.03

Reprinted from the part before: 4 compounds, then new ones.
SMILES	KCNQ2 block	KCNQ2 block baseline
CCOCC(=O)Nc1cc(C(=O)OC)ccc1C(=O)OC	i	-0.56
COc1ccc(CC(=O)Nc2ccccc2C(C)=O)cc1S(=O)(=O)N1CCOCC1	i	-0.35
CC(=O)C1=C(C)NC(SCC(=O)c2ccccc2)=C(C#N)C1CC(C)C (stereo unspecified)	i	-1.1
CCOc1ccc(NC(=O)N(c2ccccc2)c2ccccc2)cc1	i	0.03
CCNC(=O)N1c2ccc(OCC)cc2C(C)=CC1(C)C	i	-0.04
O=C(Nc1ccc(OC(F)(F)F)cc1)C1=NCCN1	i	-0.06
COc1cccc(CNc2nc3ccccc3n2CCN2CCCCC2)c1	i	1.5
O=C1CC(c2cccs2)CC(O)=C1C=NCCN1CCNCC1 (stereo unspecified)	i	1.5
CCC1CCCCN1C(=O)CSc1nnc(CNC(=O)COc2ccc(Cl)cc2)o1 (stereo unspecified)	i	-0.1
COc1cc(C2c3c(-c4ccccc4)n[nH]c3C(=O)N2c2ccccc2)ccc1O (stereo unspecified)	i	2.1
CC(=O)c1ccc(NS(=O)(=O)c2ccc3c(c2)N(C)CCO3)cc1	i	-0.66
CCCNC(=O)c1c(C)cc(=O)oc1C	i	-0.49
Cc1ccc(/C=N/Nc2ccc3c(C(F)(F)F)cc(C(F)(F)F)nc3n2)cc1	i	-0.29
CCS(=O)(=O)N1Cc2ccccc2CC1C(=O)NCc1cccc(OC)c1 (stereo unspecified)	i	-1
CC1=C(C)/C(=N/OC(=O)c2cccc([N+](=O)[O-])c2)C=CC1=O	i	-1.3
O=C1c2cccnc2-c2ncccc21	i	0.44

A second format for some results above:
CCC1CCCCN1C(=O)CSc1nnc(CNC(=O)COc2ccc(Cl)cc2)o1 (stereo unspecified)
  KCNQ2 block: i
  KCNQ2 block baseline: -0.1

O=C1c2cccnc2-c2ncccc21
  KCNQ2 block: i
  KCNQ2 block baseline: 0.44

O=C(Nc1ccc(OC(F)(F)F)cc1)C1=NCCN1
  KCNQ2 block: i
  KCNQ2 block baseline: -0.06

O=C1CC(c2cccs2)CC(O)=C1C=NCCN1CCNCC1 (stereo unspecified)
  KCNQ2 block: i
  KCNQ2 block baseline: 1.5

More compounds.
SMILES	KCNQ2 block	KCNQ2 block baseline
Cc1cccc(NC(=S)N2CCC(C(=O)c3ccc(F)cc3)CC2)c1C	i	0.95
COc1ccc2c(c1)-c1nc(N)sc1CC2	i	-0.4
Cc1nc(S/C(=C/c2ccc(-c3cc(Cl)ccc3C)o2)C(=O)O)n[nH]1	i	0.07
CCN(CC)S(=O)(=O)c1ccc(C(=O)Oc2coc(CSc3nc(C)cc(C)n3)cc2=O)cc1	i	-0.82
COc1ccc2cc(C3C(C#N)=C(N)OC(C)=C3C(C)=O)c(Cl)nc2c1 (stereo unspecified)	i	0.65
CC(=O)NNc1ncnc2c1cnn2-c1ccc(C)cc1	i	-0.39
Cc1ccn2cc(CCNS(=O)(=O)c3ccc4c(c3)CCCC4)nc2c1	i	0.04
C/C(=N\NC(=S)NCc1ccccc1)c1ccccc1F	i	0.37
O=C(CCCc1ccccc1)NCCCc1ccccc1	i	-0.35
O=C(Nc1ccccc1)c1ncoc1-c1ccc(Cl)cc1	i	0.84
Cc1ccc(S(=O)(=O)N2CCC(C(=O)N3CCC[C@H]3C(=O)NCc3ccccc3)CC2)cc1	i	0.08
COc1ccc(CCNC(=O)C/C(C)=N/NC(=O)C2CCCCC2)cc1OC	i	4.6
COc1ccc2c(c1)CCc1cc(C(=O)N3CCN(c4ccc(N5CCOCC5)nn4)CC3)sc1-2	i	1
Cc1ccc(-c2nc(-c3ccc(Cl)cc3)sc2CC(=O)O)c(C)c1	i	-0.37
CN(c1ccccc1)c1ccc(/C=N/NC(=O)CC#N)cc1	i	-2.7
CCC1(c2ccccc2)NC(=O)N(CC(=O)Nc2cccc(C#N)c2)C1=O (stereo unspecified)	i	-0.02
CCOC(=O)C1CCCN(C(=O)CSc2nccn2C)C1 (stereo unspecified)	i	2.1
O=C(CCCCl)Nc1c2c(nn1-c1ccccc1)CSC2	i	-0.38
O=C(CSc1nnc(-c2cccnc2)n1Cc1ccccc1)N1CCOCC1	i	-0.11
CCc1ccc(NC(=O)COC(=O)c2ccc(Cl)c(S(=O)(=O)N3CCCCCC3)c2)cc1	i	-2.4
O=C(NCC(=O)N(Cc1cccs1)C(C(=O)NC1CCCCC1)c1ccco1)c1ccco1 (stereo unspecified)	i	-0.64
Cc1ccc(C)c(NC(=O)CNC(=O)N2CC(=O)Nc3ccccc32)c1	i	-0.45
CCCCn1c(N)c(N(CCOC)C(=O)c2ccc(N3CCCC3)c([N+](=O)[O-])c2)c(=O)[nH]c1=O	i	1.2
COc1cc(/C=C/C(=O)NC(C)C)ccc1OCc1ccccc1	i	0.05
NC(=O)c1sc2nc(-c3ccco3)ccc2c1N	i	0.74
Cc1nn(C)c(C(=O)N/N=C/c2cccnc2)c1Cl	i	-0.56
CCN1C(C(=O)c2ccccc2)=C(Nc2ccccc2C)c2ccccc2S1(=O)=O	-6.9*	-1.7*
O=C(CCN1CCN(c2ccccc2)CC1)Nc1cccc(Br)c1	i	-1.1
COc1cccc(Nc2nc(NCCO)c3ccccc3n2)c1	i	2.7
O=C(CCc1ccccc1)Nc1nnc(-c2ccc3c(c2)CCCC3)o1	i	0.84
C=CCNC(=O)CN1C(=O)NC(C)(c2ccc(OC)cc2)C1=O (stereo unspecified)	i	-0.02
CC(=O)OCCN1C(=O)c2cccnc2C1=O	i	-3.8
CCCCn1c(=O)c(CCC(=O)OCC(=O)Nc2cc(Cl)ccc2OC)nc2ccccc21	i	-0.01
CCCCn1c(-c2csc3c2CCC(C)C3)n[nH]c1=S (stereo unspecified)	i	0.39
CN1CCN(NC(=O)C23CC4CC(CC(C4)C2)C3)CC1	i	-0.2
COc1cccc(NC(=S)N/N=C2/CCCCc3ccccc32)c1	i	0.13

Seven successive compounds already listed, quoted:
SMILES	KCNQ2 block	KCNQ2 block baseline
O=C(CCc1ccccc1)Nc1nnc(-c2ccc3c(c2)CCCC3)o1	i	0.84
C=CCNC(=O)CN1C(=O)NC(C)(c2ccc(OC)cc2)C1=O (stereo unspecified)	i	-0.02
CC(=O)OCCN1C(=O)c2cccnc2C1=O	i	-3.8
CCCCn1c(=O)c(CCC(=O)OCC(=O)Nc2cc(Cl)ccc2OC)nc2ccccc21	i	-0.01
CCCCn1c(-c2csc3c2CCC(C)C3)n[nH]c1=S (stereo unspecified)	i	0.39
CN1CCN(NC(=O)C23CC4CC(CC(C4)C2)C3)CC1	i	-0.2
COc1cccc(NC(=S)N/N=C2/CCCCc3ccccc32)c1	i	0.13

Next part:
SMILES	KCNQ2 block	KCNQ2 block baseline
CN(C(=O)c1ccc(=O)[nH]c1)C1(C(=O)NC2CCCCC2)CCCCC1	i	-0.17
CC(=O)N1C2CCCCC2S[C@H]2CCCCC21 (stereo partly specified)	i	-1.1
NC(=O)c1ccsc1NC(=O)COc1ccccc1	i	0.28
O=C1CCC(C(=O)N2CCCO2)CN1Cc1cccc(C(F)(F)F)c1 (stereo unspecified)	i	0.34
CC(C)=CC(=O)OCC(=O)Nc1cc(C)ccc1C	i	0.73
N#Cc1c(NC(=O)CSc2nnc(-c3ccncc3)n2CC2CCCO2)sc2c1CCCC2 (stereo unspecified)	i	1.1
Cc1nc(Cl)c2c(n1)NC1=C(O2)C(=O)CCC1	i	36
Cc1ccc(NC(=O)CNc2ccccc2CN(C)C2CCCCC2)cc1	i	-0.24
O=C(N=C1c2ccccc2CN1c1ccccc1)c1cccc([N+](=O)[O-])c1	i	2.2
CCn1c(CC(=O)Nc2ccccc2)nnc1SCC(=O)Nc1nncs1	i	-1.8
CCc1nc(NCCN2CCOCC2)c2oc3ccccc3c2n1	i	-1.2
Cc1cccc(NC(=O)Cn2c(C)c(C#N)c3ccccc32)c1C	i	0.25
Cc1ccc(/C=N\NC(=O)C2CC(=O)N(c3ccccc3)C2)o1 (stereo unspecified)	i	-0.13
S=C(Nc1ccc2c(c1)OCO2)Nc1ccc2c(c1)OCO2	i	1.9
COc1ccc(OC)c(-c2csc(NC(=O)Cc3ccc(F)cc3)n2)c1	i	0.76
CC(C)c1nnc(NC(=O)C2CCCN2C(=O)Nc2ccccc2[N+](=O)[O-])s1 (stereo unspecified)	i	0.76
O=C(COc1ccccc1Cl)NCc1ccccc1	i	2.2
CC(C)OCc1c(C(=O)Nc2nccs2)oc2ccccc12	i	-0.97
CCNC(=S)N1CCN(c2ccccn2)CC1	i	-0.2
Cc1cc(NS(=O)(=O)c2ccc(NC(=O)NC3CCCCC3)cc2)no1	i	0.02
CC1CN(C(=O)COc2ccc3ccccc3c2Br)CC(C)O1 (stereo unspecified)	i	-0.77
CCOc1ccccc1NC(=O)COC(=O)Cc1cccs1	i	-0.59
Cc1ccnc(SCc2cc(=O)c(OC(=O)c3cccs3)co2)n1	i	-0.15
OCC(O)C(O)C(O)C(O)C1NCCS1 (stereo unspecified)	i	-0.43

Assay outcomes (PubChem BioAssay)

Not all compounds are listed; count on the stated rates, not on these rows.
